Screens (PubChem)
Rce1 inhib = blocks yeast Ras-converting enzyme | calls only | Q03530 | 290,000 compounds, 0.27% hits | yeast membranes, quenched prenylated peptide cleavage fluorescence | AID 2563;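 active = fall in fluorescence gain of 50% or more versus controls, with final raw signal at or below 3038400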;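 note: plate controls were neutral control wells for no effect and wells lacking membranes for full effect; tested at 10 µM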
Target sequence (Q03530 whole entry, looked up): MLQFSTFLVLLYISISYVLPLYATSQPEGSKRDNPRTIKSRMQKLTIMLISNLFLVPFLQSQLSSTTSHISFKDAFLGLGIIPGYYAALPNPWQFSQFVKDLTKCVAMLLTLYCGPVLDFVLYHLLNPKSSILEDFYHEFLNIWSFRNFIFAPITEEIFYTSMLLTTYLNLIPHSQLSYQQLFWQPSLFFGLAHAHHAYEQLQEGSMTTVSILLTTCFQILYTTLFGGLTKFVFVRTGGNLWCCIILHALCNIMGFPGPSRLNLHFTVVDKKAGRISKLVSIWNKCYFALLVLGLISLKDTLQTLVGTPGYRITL
eIF4H FP inh = inhibitors of RNA binding by human eIF4H | Q15056 | eIF4H fluorescence polarization binding assay | inhibition, % at 35 µM | 290,000 compounds, 0.94% hits | AID 2012;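 active = 50% or more with normal probe brightness, or confirmed in later tests; about a fifth of its hits are not listed in these tables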;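 note: calls also rest on retests at 20 µM and on dose response follow-up; 0% = protein and probe with vehicle and 100% = probe without protein; strong numbers were not always called active; many hits fall short of the cut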
CSC inhib = cancer stem cell inhibition. cancer stem cell-like cells viability, luminescence. 300,000 compounds, 1.1% hits. inhibition, % at 7.5 µM;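 active = mean at 75% or more and at least half the replicates too; tested in HMLE shEcad cells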;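 note: 0% = median of negative and 100% = median of positive control wells; the first replicate is given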
MT1-MMP act inh = MT1-MMP (human) activation inhibition | GFP/RFP ratio change, % at 20 µM | P50281 | 360,000 compounds, 0.061% hits | HT1080 RFP-PRO-GFP cells, GFP/RFP ratio fluorescence, overnight; percent of plate control window, DMSO zero;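 active = GFP/RFP ratio change of at least 30% with cell ATP level not reduced by more than half and red fluorescence within 50% of control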; note: strong numbers were not always called active
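Test system: HT1080 cells expressing an RFP-PRO-GFP fluorescent reporter construct / Compound dosing: single-point 20 µM compound, 1% DMSO / Schedule: cells overnight before dosing, compound overnight, 37 °C, 5% CO2 / Evaluation: GFP/RFP fluorescence ratio / Control set: DMSO and RFP-L50D-GFP cell wells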
PABP FP inh = PABP-poly(A) binding inhibition; P11940; PABP-poly(A) RNA binding, fluorescence polarization; inhibition, % at 35 µM; 290,000 compounds, 1% hits;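 active = 50% or more with normal probe brightness, or confirmed in later tests; about a fifth of its hits are not listed in these tables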;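 note: calls also rest on retests at 20 µM and on dose response follow-up; controls were probe without protein and protein plus probe with vehicle; some compounds called inactive have numbers as strong as hits; many hits fall short of the cut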
Yeast UUG start = alters start codon recognition fidelity in yeast. S. cerevisiae UUG-firefly luciferase reporter, luminescence/redox ratio. activity score, % at 18.7 µM. 350,000 compounds, 0.13% hits;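 active = replicate mean at a twofold rise or more, about +100% in these data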;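 note: firefly luciferase made from a UUG start codon reports start codon fidelity; reporter light over untreated wells divided by growth signal over untreated wells; some hits fall short of that in this replicate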
HIV Env fusion = blocks HIV Env-driven cell-cell fusion; HeLa-JRFL Env/CEM21 cell fusion, luciferase; 360,000 compounds, 1.1% hits; inhibition, % at 12.3 µM;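 active = mean replicate inhibition score of at least 50 and every replicate individually at or above 50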;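 note: 0% = plate neutral controls and 100% = maraviroc near 300 nM; one replicate is shown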
eIF4H FP inh retest = further read-out of eIF4H FP inh, marked with its call; inhibition, %; compound at 20 µM; confirmation average;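 mean of two retest wells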
PABP FP inh retest = also measured in PABP FP inh; calls as there; inhibition, %; compound at 20 µM; confirmation repeats;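 mean of two retest wells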
MT1-MMP act inh RFP = further read-out of MT1-MMP act inh, marked with its call; RFP signal change, %; measured here: RFP expression control read;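 0 = vehicle wells; hits needed this value within 50% of zero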
An asterisk follows results filed as active; i = inactive; / = no result given. Some of the compounds tested; the hit share may differ from the screen's.

SMILES	Rce1 inhib	eIF4H FP inh	CSC inhib	MT1-MMP act inh	MT1-MMP act inh RFP	PABP FP inh	Yeast UUG start	HIV Env fusion	others
CC(C)C1CCN(C(=O)C2CCC(=O)N(C3CCCCCC3)C2)CC1 (configuration not stated)	/	/	/	0	-3	/	-12	-38
COC(=O)CCC/C=C1/SCC(NC(=O)c2ccccc2)C1O (configuration not stated)	i	-4	0	1	2	-3	-15	/
O=c1c2ccccc2n(Cc2cccc(F)c2)c(=O)n1C1CCCC1	i	-4	/	-4	-4	-3	-10	/
Cc1ccc2nsnc2c1S(=O)(=O)NCc1ccncc1	i	0	-7	4	-6	-3	/	/
CCC(C(=O)N1CCc2cc(OC)c(OC)cc2C1)c1ccccc1 (configuration not stated)	i	91	-9	2	1	2	21	-31	eIF4H FP inh retest=-10;PABP FP inh retest=9
O=C(Nc1ccccc1C(=O)N/N=C/c1ccncc1)c1ccccc1	i	-9	41	2	0	3	-40	-81
COC(=O)c1ccc(N(CC(=O)NC2CCCC2)C(=O)CNC(=O)c2cccs2)cc1	i	-14	-2	-8	-1	3	9	0
COc1cc(OC)c(-c2nnc3n(CCc4ccccc4)c(=O)c4ccccc4n23)cc1OC	i	-12	/	/	/	-19	/	41
CCOC(=O)c1cc2c(=O)n3ccccc3nc2n(C)c1=NC(=O)c1c(-c2c(F)cccc2Cl)noc1C	/	/	18	0	-10	/	-7	5
CC1CCN(c2c(NCc3ccc(C(=O)N4CCc5ccccc54)cc3)c(=O)c2=O)CC1	i	5	55	10	-4	7	-14	28
COc1cc(C=O)ccc1OC(=O)Nc1ccccc1	i	/	-7	1	7	/	-5	-5
Cn1c(CN2CCOCC2)nnc1SCC(N)=O	i	-5	-11	6	9	-2	-10	/
Cc1ccc(NS(=O)(=O)c2c(C(=O)N3CCCCCC3)c(C)n(C)c2C)c(Cl)c1	i	-5	-15	-3	2	2	-3	8
C[C@@H](C(=O)NCC1CCCO1)N1C(=O)N2CCc3c([nH]c4ccccc34)[C@@]2(C)C1=O (some centres not stated)	/	4	-4	2	-4	7	-18	/
S=C(c1ccc2c(c1)OCO2)N1CCOCC1	i	0	-19	-1	-3	-1	-12	0
O=C(CCCN1C(=O)/C(=C/c2ccccc2Cl)SC1=S)NNC(=O)c1ccccc1Cl	i	2	29	2	-2	5	/	49
Cc1cc(C)c(NC(=O)C(C)OC(=O)c2cc(Br)c(Br)s2)c(C)c1 (configuration not stated)	i	-2	-3	-2	-1	1	/	-18
Cc1ccc2cc(CN(C(=O)c3ccco3)c3ccccc3)c(=O)[nH]c2c1	i	-7	-8	1	-4	6	/	/
Cc1[nH]c2ccccc2c1/C=C(\C#N)C(=O)NC(C)c1ccccc1 (configuration not stated)	i	-10	-7	-20	-4	57*	-17	-72
Clc1ccc(-c2cc(-c3ccccc3)on2)cc1	/	/	-5	1	4	/	-15	-195
COc1ccccc1C/C(N)=N/OC(=O)c1cccc([N+](=O)[O-])c1	i	-10	-1	-3	-1	-9	/	/
CC(=O)OCCN(C)c1cc(SC(C)C)c2nonc2c1[N+](=O)[O-]	i	-3	-16	1	0	4	-12	7
CCOC(=O)C(=CNc1ccc(-c2ccco2)c(Cl)c1)C(=O)OCC	i	38	3	0	0	8	-22	4
CCOC(=O)C1=c2s/c(=C\c3ccncc3)c(=O)n2C(N)=C(C(=O)OC)C1c1ccncc1 (configuration not stated)	i	1	0	-3	-5	-1	/	29
O=C(COC(=O)CCc1c[nH]c2ccccc12)NC(c1ccccc1)c1ccccc1	i	-7	4	-1	0	-2	-2	-18
O=C(NCC1CCCO1)c1cc(-c2ccc(Cl)cc2Cl)on1 (configuration not stated)	i	-5	-11	-5	-2	7	-18	-74
CCC(C)NC(=O)Cc1ccc(-c2ccccc2)cc1 (configuration not stated)	i	6	16	-1	0	-8	-25	2
Cc1ccc(-c2nn3c(C)nnc3s2)cc1NC(=O)c1ccc(-c2ccc(Cl)cc2Cl)o1	/	-8	7	-4	1	33	-21	115*
O=C(Nc1ccc2cn[nH]c2c1)c1ccc(S(=O)(=O)N2CCOCC2)cc1	i	-2	1	1	-2	7	/	-6
Cc1ccc(C)c(N(CC(=O)N(C)C)S(C)(=O)=O)c1	i	4	-7	5	0	2	-17	/
COc1ccc(NC2=Nc3cccc4cccc2c34)cc1	i	-8	-6	-11	-5	7	/	-108
CC(C)(C)c1ccc(OCCC(=O)Nc2cccc(S(=O)(=O)N3CCCC3)c2)cc1	i	/	-3	-3	-17	/	-14	40
O=C(CN1C(=O)NC2(CCc3ccccc32)C1=O)c1ccc(F)c(F)c1 (configuration not stated)	i	/	/	2	0	/	8	20
CN1CCN(Cc2c(O)c(Cl)cc3c(-c4ccccc4)cc(=O)oc23)CC1	i	6	-16	-11	-1	11	-3	6
COc1cc(NC(=O)c2ccc(F)cc2)c(OC)cc1NC(=O)CN1CCCCC1	i	4	34	5	3	19	/	0
CCn1cc(/C=C/C(=O)Nc2ccn(Cc3c(F)c(F)c(F)c(F)c3F)n2)cn1	i	-5	-1	3	2	4	/	-17
Cc1cc(C)cc(OC(=O)COc2ccccc2C)c1	i	7	-14	0	-2	14	/	1
C=CCn1c(NCCOC)nc2c1c(=O)n(C)c(=O)n2C	i	-2	-14	9	-3	-2	-5	-92
CC(C)(C)NC(=O)C(c1ccncc1)N(C(=O)Cn1nnc(-c2ccc(F)cc2)n1)c1ccccc1F (configuration not stated)	i	0	/	-3	-4	4	/	6
CCCCN(C(C)=O)c1ccc2c(c1)C1CC2CCN1C(=O)OCc1ccccc1 (configuration not stated)	/	/	/	0	-31	/	-5	63*

Structural class, the entries above containing an NH in an aromatic ring
SMILES	Rce1 inhib	eIF4H FP inh	CSC inhib	MT1-MMP act inh	MT1-MMP act inh RFP	PABP FP inh	Yeast UUG start	HIV Env fusion	others
C[C@@H](C(=O)NCC1CCCO1)N1C(=O)N2CCc3c([nH]c4ccccc34)[C@@]2(C)C1=O (some centres not stated)	/	4	-4	2	-4	7	-18	/
Cc1ccc2cc(CN(C(=O)c3ccco3)c3ccccc3)c(=O)[nH]c2c1	i	-7	-8	1	-4	6	/	/
Cc1[nH]c2ccccc2c1/C=C(\C#N)C(=O)NC(C)c1ccccc1 (configuration not stated)	i	-10	-7	-20	-4	57*	-17	-72
O=C(COC(=O)CCc1c[nH]c2ccccc12)NC(c1ccccc1)c1ccccc1	i	-7	4	-1	0	-2	-2	-18
O=C(Nc1ccc2cn[nH]c2c1)c1ccc(S(=O)(=O)N2CCOCC2)cc1	i	-2	1	1	-2	7	/	-6

(continued)
SMILES	Rce1 inhib	eIF4H FP inh	CSC inhib	MT1-MMP act inh	MT1-MMP act inh RFP	PABP FP inh	Yeast UUG start	HIV Env fusion	others
COc1ccc(NC(=O)c2ccc(C)cc2)cc1	i	-5	-2	1	-1	-2	-28	3
Cc1ccc(S(=O)(=O)Nc2cc3c(cc2N2CCOCC2)n(C)c(=O)c(=O)n3C)cc1	i	-2	-3	4	3	12	-8	9
O=C(NCCCn1ccnc1)/C(=C\c1ccco1)NC(=O)c1ccco1	i	12	-11	2	-1	-14	/	17
C=CCn1cc(C(=O)c2cc(Br)ccc2O)cc(C#N)c1=O	i	6	-8	-4	-8	-10	-14	-36
COc1ccc(C2(O)CCN(C(=O)c3c(F)cccc3F)CC2)cc1	i	-7	/	-5	0	-11	-5	/
NC(=O)c1ccc(/C=N/O)nc1	i	-5	1	4	4	13	/	0
Cc1ccc(/C=C(\CCC(=O)O)c2nc3ccccc3s2)cc1[N+](=O)[O-]	i	-4	38	1	-1	-10	0	/
O=C(C(=O)N1CCN(c2ccccc2)CC1)c1cn(CC(=O)N2CCCCCC2)c2ccccc12	i	18	-6	-1	0	6	-30	-8
Cc1cc(N2C(=O)CC(Cc3ccc(Cl)cc3)C2=O)no1 (configuration not stated)	i	-2	-5	0	4	-3	-12	-32
COc1ccc(NC(=O)Nc2cccs2)cc1Cl	i	3	/	1	1	-5	/	-1
COc1cc(C(=O)NCC(=O)N/N=C/c2c(C)[nH]c3ccccc23)cc(OC)c1OC	i	-3	8	2	-3	-11	/	-19
COc1ccc(CC(=O)NNC(=O)c2ccccc2)cc1OC	/	/	-2	7	2	/	-15	/
CCOC(=O)C1=C(CC)Nc2ccccc2N=C1NC(=O)CCN1C(=O)C2CCCCC2C1=O (configuration not stated)	i	0	/	6	-2	6	/	8
Cc1ccc([N+](=O)[O-])cc1S(=O)(=O)N1CCCC1	i	-9	/	-5	4	-8	/	5
CCc1cccc(NC(=O)[C@@H]2CCCN2C2=NS(=O)(=O)c3ccccc32)c1	/	/	5	2	1	/	-7	/

Sorted by count of non-hydrogen atoms (lowest first): part of the list above
SMILES	Rce1 inhib	eIF4H FP inh	CSC inhib	MT1-MMP act inh	MT1-MMP act inh RFP	PABP FP inh	Yeast UUG start	HIV Env fusion	others
Cc1ccc([N+](=O)[O-])cc1S(=O)(=O)N1CCCC1	i	-9	/	-5	4	-8	/	5
Cc1cc(N2C(=O)CC(Cc3ccc(Cl)cc3)C2=O)no1 (configuration not stated)	i	-2	-5	0	4	-3	-12	-32
COc1ccc(C2(O)CCN(C(=O)c3c(F)cccc3F)CC2)cc1	i	-7	/	-5	0	-11	-5	/
